# WNV protease inh = blocks West Nile virus NS2B-NS3 protease activity | WNV NS2B-NS3 protease, fluorogenic substrate Ex360/Em465; active compounds read low | z-score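 (tested at a level between 10 and 100 µM)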 | P06935 | 65,000 tested, 0.18% active;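 active = z-score at -3 or under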;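 also: score is relative to mean and spread of the compound wells of a plate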
# Target sequence (P06935 1371-1501 limits assumed): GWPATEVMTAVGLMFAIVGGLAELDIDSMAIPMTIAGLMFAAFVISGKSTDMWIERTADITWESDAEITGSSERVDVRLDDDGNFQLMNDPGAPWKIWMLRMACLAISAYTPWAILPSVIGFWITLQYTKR
# Target sequence (P06935 1502-1679 limits assumed): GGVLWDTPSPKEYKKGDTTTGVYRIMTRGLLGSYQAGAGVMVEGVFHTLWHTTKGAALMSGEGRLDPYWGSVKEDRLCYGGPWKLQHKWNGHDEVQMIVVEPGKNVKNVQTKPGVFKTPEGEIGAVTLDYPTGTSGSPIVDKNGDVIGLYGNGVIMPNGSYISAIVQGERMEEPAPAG
# * marks the source's active call; other numbers are inactive results; & = joins results of further samples. Not all compounds are listed; the hit share may differ from the screen's.
Structure | WNV protease inh
O=C(NC1CCCC1)C(c1ccncc1)N(Cc1cccs1)C(=O)c1csnn1 (configuration not stated) | -0.81
COc1ccc(C(=O)NCc2n[nH]c(=S)n2-c2ccccc2)cc1OC | 0.75
COc1ccc(-c2noc(CCC(=O)Nc3ccc4c(c3)OCCO4)n2)cc1 | 2.4
O=C(CSc1nnc(COc2ccccc2)n1-c1ccccc1)c1cccs1 | 0.08
COc1ccc(C2(NC(C)=O)CCN(C(=O)CCC(=O)O)CC2)cc1 | 0.18
O=C(Nc1ccc2c(c1)OCO2)c1ccc(Br)s1 | 0.59
COc1ccc(OC)c2c(C)cc(N3CCCN(C)CC3)nc12 | 0.62
O=C(CSc1nnc(CNC(=O)c2ccccc2F)o1)c1ccc(Cl)cc1 | 0.13
CCOC(=O)N1CCN(C(=O)CSCC(=O)N=c2sc3cc(OC)ccc3n2C)CC1 | 0.23
COC(=O)c1sc(N)c(C(=O)OC)c1CSc1nc2sc3c(c2c(=O)n1C)CCC3 | 0.11
O=C(N1CCN(c2ccccc2)CC1)C(F)(F)C(F)F | 0.48
CN1C(=O)CSc2ccc(NC(=O)NCCC3=CCCCC3)cc21 | -1.4
CN(Cc1ccccc1)C(=O)Nc1ccccc1 | -0.93
CSc1nsc(SC)c1NC(=O)N1CCCC1 | -0.58
CCSc1nnc(NC(=O)CSc2nccn2-c2cccc(C)c2)s1 | -0.27
Cc1ccc(CCNC(=O)CN2CCN(Cc3ccccc3F)C2=O)cc1 | -0.14
CCn1cc(SCC(=O)NCC2CCCO2)c2ccccc21 (configuration not stated) | 0.17
C(=C\CSc1nnnn1-c1ccccc1)/CSc1nnnn1-c1ccccc1 | 1.5
CCOC(=O)NC(NC(=O)OCC)C(=O)c1ccc(F)cc1 | 0.86
COC(=O)C1=C(N)Oc2cc(C)n(CC3CCCO3)c(=O)c2C1c1ccccc1 (configuration not stated) | -1.3
COc1nc(NC23CC4CC(CC(C4)C2)C3)nc(OC)n1 | 1.2
COc1cccc(NC(=O)CC2SC(=Nc3ccccc3)NC2=O)c1 (configuration not stated) | -1.1
O=C(CN(c1ccccc1F)S(=O)(=O)c1ccccc1)N1CCCCCC1 | -0.79
O=C(NCc1ccc2c(c1)OCO2)C1CCN(Cc2cnn(-c3ccccc3)c2-n2cccc2)CC1 | 1.7
CC(C)OC(=O)C(CC(=O)O)NCc1ccccc1 (configuration not stated) | -0.42
COc1ccc(CCNC(=O)C2CCCN(S(=O)(=O)c3cccc4nonc34)C2)cc1OC (configuration not stated) | -0.85
Cc1n[nH]c(C)c1S(=O)(=O)N1CCN(C2CCCCC2)CC1 | -1.2
Cc1cccc2sc(NC(=O)C3CCCN(S(=O)(=O)c4cccc5nonc45)C3)nc12 (configuration not stated) | 1.1
COc1ccc(-c2noc(CCC(=O)N3CCN(Cc4ccccc4)CC3)n2)cc1 | -0.26
CN1C(C(=O)Nc2ccccn2)=C(O)c2ccccc2S1(=O)=O | -1.6&-0.19
Cn1c(=NC(=O)CSCC(=O)N2CCOCC2)sc2ccccc21 | -0.55
CC(=O)c1cccc(NC(=O)C2CC(=O)N(c3cccc(C)c3C)C2)c1 (configuration not stated) | -0.45
COc1ccc(N2CCN(C(CNS(=O)(=O)c3cccs3)c3cccnc3)CC2)cc1 (configuration not stated) | -0.88
O=C(C1CCCCC1)N1CC(=O)N2CCc3ccccc3C2C1 (configuration not stated) | 0.95&-0.6
CCCNC(=O)c1cc(-c2ccc(OC)cc2)on1 | -0.25
CC(C)N(C(=O)C1CC(=O)OC12CCCCC2)C(C)C (configuration not stated) | -0.77
COc1ccc(S(=O)(=O)NCCSc2ccccc2)cc1OC | -0.83
NC(=O)c1ccccc1OCC(=O)NS(=O)(=O)c1ccccc1 | 0.66
Cc1ccccc1CSc1nc2n(n1)C(c1cccs1)C1=C(CCCC1=O)N2 (configuration not stated) | -1.3
Cn1c(=O)c2cc(S(=O)(=O)N3CCN(c4cccc(C(F)(F)F)c4)CC3)ccc2n(C)c1=O | 0.51
NC(=O)c1ccsc1NC(=O)c1ccco1 | 0.65
CCCCSC1=C(C#N)C(c2ccccc2C)CC(=O)N1 (configuration not stated) | -0.11
COc1ccc(-n2ncc3c(N4CCCCC4)ncnc32)cc1 | 2
C#CCn1cnc2c(cnn2-c2ccc(C)c(C)c2)c1=O | -0.18
Cn1c2ccccc2c2c(C(=O)N3CCN(c4ccccc4)CC3)cn(C3CCCC3)c(=O)c21 | 0.19
CC(=O)N1CCc2cc(S(=O)(=O)N3CCc4ccccc4C3)ccc21 | -1.2
O=C1C=C(NCCN2CCOCC2)CC(c2ccccc2)C1 (configuration not stated) | -0.04
CCc1ccc(CCC(=O)Nc2sc3c(c2C#N)CCCC3)o1 | -0.36
CCOCCCNS(=O)(=O)c1ccc2c(c1)CCN2C(C)=O | -0.74
Cc1cccc(-n2ncc3c(N(C)C4CCCCC4)ncnc32)c1 | 0.46
O=C(COc1cccc2ccccc12)N1CCN(c2ccccc2)CC1 | -0.69
Cc1n[nH]c(=O)nc1NC1CCCCC1 | 0.32
COc1ccc(/C(O)=C(\C#N)c2nc3ccccc3n2C)cc1OC | -0.25
CCOc1ccc(C2CC(=O)NC(SCC(=O)OC)=C2C#N)cc1 (configuration not stated) | -1.9
COc1ccc(-c2cc(C(=O)N3CC4(C)CC3CC(C)(C)C4)no2)cc1 (configuration not stated) | -0.57
CCOC(=O)NC(NC(=O)OCC)C(=O)c1ccccc1 | 1.5
CC(=O)N(c1ccccc1)c1c(F)c(F)c(F)c(F)c1F | 1.6
Cn1cc(S(=O)(=O)N2CCC(Cc3ccccc3)CC2)c(=O)n(C)c1=O | 1.4
Cc1ccccc1C(=O)N1CCN(c2nc(N3CCOCC3)nc(N3CCOCC3)n2)CC1 | -1
CN(C)C(=S)c1ccc2ccccc2n1 | 0.28

# (cont.)
Structure | WNV protease inh
O=C(C1CCCN1S(=O)(=O)c1cccc2cccnc12)N1CCn2c1nc1ccccc12 (configuration not stated) | -0.81
O=C(Cc1ccc(-c2ccccc2)cc1)N1CCOCC1 | -1.8
COc1cc2c(cc1OC)C(Cc1ccc(O)cc1)N(C)CC2 (configuration not stated) | -0.84
COc1ccc(NC(=O)CCN2CCC(C)CC2)cc1 | -0.15
COC(=O)CSc1nnc(-c2ccccn2)n1Cc1ccco1 | 0.18
Cc1nn(-c2ccccc2)c2sc(C(=O)OCn3nnc4ccccc4c3=O)cc12 | -0.23
CCc1ccc(CCC(=O)Nc2ccc(S(N)(=O)=O)cc2)o1 | -0.28
CSc1cccc(NS(=O)(=O)c2cccs2)c1 | -1.3
CC(=O)N1C(C(=O)O)CSC1c1cccc(C)c1 (configuration not stated) | 1.8
c1ccc(COc2ccc(Nc3ncnc4nc[nH]c34)cc2)cc1 | 1.9
CCOC(=O)N1CCN(C(=O)C2CCN(S(=O)(=O)c3ccc(Br)s3)CC2)CC1 | -0.13
CC(CCc1ccccc1)NC(=O)C1CCN(c2nnc(-n3cccc3)s2)CC1 (configuration not stated) | -0.74
O=C1CC(c2ccc3c(c2)OCO3)c2cc3c(cc2N1)OCO3 (configuration not stated) | 0.03
O=C(Cn1c(=O)sc2ccccc21)NCc1ccco1 | -0.23
CCOC(=O)C1CCCN(Cc2nc(N)nc(Nc3ccccc3OC)n2)C1 (configuration not stated) | -1.4
Cc1ccc(OCC(=O)NCCO)cc1C | -1
CCCCC(=O)Nc1ccc(C(=O)N2CCCC(C(=O)OCC)C2)cc1 (configuration not stated) | 0.66
CN1CCN(CCP(=O)(c2ccccc2)c2ccccc2)CC1 | -0.11
CCN1CCn2c1nc(N1CCOCC1)nc2=O | -1
O=C(CCCOc1ccc(Cl)cc1)N1CCCCC1 | -0.35
CCc1cc2c(=O)c(-c3nc4ccccc4n3C)c(C)oc2c(CN2CCN(C)CC2)c1O | -0.94
O=C(Nc1cccnc1)C1(c2ccccc2)CCCC1 | 1.3
N#CC1=C2SCC(O)(c3ccccc3)N2C(=O)CC1c1cccs1 (configuration not stated) | 0.35
O=C(NCc1ccco1)NC12CC3CC(CC(C3)C1)C2 | -0.84
Cc1csc(SCC(=O)c2cc(C)n(Cc3cccs3)c2C)n1 | 0.81
Cc1nc2ccc3nc(NC(=O)c4ccco4)sc3c2s1 | 0.56
CCC1CCCCN1CCNC(=O)C1CCN(S(=O)(=O)c2c(C)noc2C)CC1 (configuration not stated) | -0.79
Cc1[nH]c(=O)[nH]c(=O)c1S(=O)(=O)N1CCC(C(=O)N2CCN(Cc3ccccc3)CC2)CC1 | 0.82
CCC(=O)c1cc(F)c(N2CCN(S(=O)(=O)c3ccccc3)CC2)cc1C | -0.73
COc1cc2c(cc1OC)CN(C(=O)CC1CC3CCC1C3)CC2 (configuration not stated) | 0.06

# Arranged by heavy-atom count (descending): three of the compounds above.
Structure | WNV protease inh
CCOc1ccc(C2CC(=O)NC(SCC(=O)OC)=C2C#N)cc1 (configuration not stated) | -1.9
C#CCn1cnc2c(cnn2-c2ccc(C)c(C)c2)c1=O | -0.18
O=C(N1CCN(c2ccccc2)CC1)C(F)(F)C(F)F | 0.48

# Among those listed so far, these have an NH in an aromatic ring:
Structure | WNV protease inh
COc1ccc(C(=O)NCc2n[nH]c(=S)n2-c2ccccc2)cc1OC | 0.75
Cc1n[nH]c(C)c1S(=O)(=O)N1CCN(C2CCCCC2)CC1 | -1.2
Cc1n[nH]c(=O)nc1NC1CCCCC1 | 0.32
c1ccc(COc2ccc(Nc3ncnc4nc[nH]c34)cc2)cc1 | 1.9
Cc1[nH]c(=O)[nH]c(=O)c1S(=O)(=O)N1CCC(C(=O)N2CCN(Cc3ccccc3)CC2)CC1 | 0.82

# Other entries
Structure | WNV protease inh
O=C(Nc1cccc2c1CCCC2)C1CCCN(S(=O)(=O)c2cccc3nonc23)C1 (configuration not stated) | -1.4
Clc1ccccc1CSc1nnc(-c2ccco2)c(-c2ccco2)n1 | -0.77
O=S(=O)(NCc1ccccn1)c1cccc2nsnc12 | 1.3
CC(NC(=O)NC(N)=O)(C(F)(F)F)C(F)(F)F | 0.42
CCCCCOc1ccc(C2NC(=O)NC2=O)cc1 (configuration not stated) | 1.2
Cc1nc(N2CCN(C)CC2)c2sc(=S)n(-c3ccccc3)c2n1 | -1.2
CCCCNC(=O)CC1N=C2c3ccccc3N=C(SCC(=O)Nc3cccc(C)c3)N2C1=O (configuration not stated) | 1.9
COC(=O)Nc1ccc2c(c1)N(C(=O)CCN1CCN3CCCC3C1)c1ccccc1CC2 (configuration not stated) | 0.49
CC(C)(C)n1nc2c(c1NC(=O)Cc1cccs1)CSC2 | 0.08
CCCCN(C)C(=O)c1ccc(CS(=O)(=O)c2ccccc2C)o1 | 0.01
CCCCOC(=O)C1Cc2ccccc2C(=O)O1 (configuration not stated) | -0.92
O=C(NCc1cccs1)C1CCC(CNS(=O)(=O)c2cccs2)CC1 (configuration not stated) | 1.1
Cc1nonc1NC(=O)OC1CCCCC1 | 2.4
COc1ccc(-n2c(CNC(=O)c3cc(OC)c(OC)c(OC)c3)n[nH]c2=S)cc1 | 0.38
COc1ccc(OC)c(C2=NOC(C(=O)Nc3c(C)n(C)n(-c4ccccc4)c3=O)C2)c1 (configuration not stated) | -0.34
Cc1ccccc1OCc1nnc2n1CC(C)S2 (configuration not stated) | -1
COc1cc(S(=O)(=O)N2CCN(Cc3ccc4c(c3)OCO4)CC2)c(C)cc1C | -0.24
O=C(CSc1ccccn1)Nc1ccccc1F | 0.54
COc1ccc(CN2CC(C(=O)N3CCOCC3)CC2=O)cc1 (configuration not stated) | -0.26
Cc1nn2cc(-c3ccc(N)cc3)nc2s1 | 0.87
COc1ccccc1CNc1ncnc2c1cnn2-c1ccccc1 | -0.04
CCC1CCCCN1c1nc(-c2ccncc2)nc2ccccc12 (configuration not stated) | -0.39
CCOCC(=O)Nc1nc2ccc(OCC)cc2s1 | 1.8
COc1ccc(C2C3=C(Nc4ncnn42)c2ccccc2CCC3)cc1 (configuration not stated) | -0.01
Oc1ccc(C=NCC2COc3ccccc3O2)cc1 (configuration not stated) | 0.21
COc1ccc(C2C(C(=O)Nc3ccc(F)cc3)=C(C)Nc3nc(CCCO)nn32)cc1 (configuration not stated) | -1.3
O=C(O)C1CC=CCC1C(=O)NCCc1ccccc1 (configuration not stated) | -0.39
Cc1cc(C)nc(NC(=O)CSc2nnnn2-c2ccccc2)n1 | -0.03
COc1ccc(-c2cc(C(=O)NCCN3CCOCC3)c3ccccc3n2)c(OC)c1 | -0.0087
COc1ccccc1NC(=O)c1ccc(-c2ccccc2F)o1 | -0.47
CCCC1CC(=O)OC1(C)C(=O)CSc1n[nH]c(-c2ccccc2)n1 (configuration not stated) | 0.69
CN1C(=O)N2CN(C3CCCCC3)CN3C(=O)N(C)C1C23 (configuration not stated) | 2.5
COc1cc(OC)cc(-c2nnc(SCC(=O)N3CCOCC3)o2)c1 | 0.79
CCn1c(SCC(=O)c2[nH]c(C)c(C(C)=O)c2C)nnc1-c1cccs1 | -0.38
Cc1ccc2c(c1)C1C=CCC1C(C(=O)O)N2 (configuration not stated) | -2.7
COc1ccc(-c2nc3c(c(SCC(=O)N4CCOCC4)n2)COC(C)(C)C3)cc1 | 1.9
Cc1ccc(C)c(S(=O)(=O)NCCOC(=O)Nc2sc(=S)n(C)c2C)c1 | -0.79
O=S(=O)(Cc1ccccc1)N1CCN(C2Cc3ccccc3C2)CC1 | 0.55

# Random excerpt: six records from the list.
Structure | WNV protease inh
Cc1ccc(C)c(S(=O)(=O)NCCOC(=O)Nc2sc(=S)n(C)c2C)c1 | -0.79
Cc1ccc2c(c1)C1C=CCC1C(C(=O)O)N2 (configuration not stated) | -2.7
O=S(=O)(Cc1ccccc1)N1CCN(C2Cc3ccccc3C2)CC1 | 0.55
CCCC1CC(=O)OC1(C)C(=O)CSc1n[nH]c(-c2ccccc2)n1 (configuration not stated) | 0.69
CCn1c(SCC(=O)c2[nH]c(C)c(C(C)=O)c2C)nnc1-c1cccs1 | -0.38
CN1C(=O)N2CN(C3CCCCC3)CN3C(=O)N(C)C1C23 (configuration not stated) | 2.5

# Bioassay records (PubChem)
